hNpr1 antagonist: Natriuretic polypeptide receptor (hNpr1) antagonism - Primary qHTS. Atrial natriuretic peptide receptor 1 (Homo sapiens), P16066. HEK293 hNpr1 GloSensor cGMP, ANP-stimulated luminescence. Potency, µM (doses to about 46.3 µM), without a hit: top-dose activity change, negative = inhibition, actives largely listed as inhibitors. 76,000 tested, 1.6% active; active = well fitted inhibition curve with a large enough effect; inconclusive = small, poorly fitted or top-dose-only effect; inactive = no such curve, though single readings can be large or run the other way;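 also: nearly all actives have a fitted effect of over 60% in size; nearly all hits also lower the signal before the agonist is added; a reference antagonist and vehicle were the controls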
Target sequence (P16066 whole entry, looked up): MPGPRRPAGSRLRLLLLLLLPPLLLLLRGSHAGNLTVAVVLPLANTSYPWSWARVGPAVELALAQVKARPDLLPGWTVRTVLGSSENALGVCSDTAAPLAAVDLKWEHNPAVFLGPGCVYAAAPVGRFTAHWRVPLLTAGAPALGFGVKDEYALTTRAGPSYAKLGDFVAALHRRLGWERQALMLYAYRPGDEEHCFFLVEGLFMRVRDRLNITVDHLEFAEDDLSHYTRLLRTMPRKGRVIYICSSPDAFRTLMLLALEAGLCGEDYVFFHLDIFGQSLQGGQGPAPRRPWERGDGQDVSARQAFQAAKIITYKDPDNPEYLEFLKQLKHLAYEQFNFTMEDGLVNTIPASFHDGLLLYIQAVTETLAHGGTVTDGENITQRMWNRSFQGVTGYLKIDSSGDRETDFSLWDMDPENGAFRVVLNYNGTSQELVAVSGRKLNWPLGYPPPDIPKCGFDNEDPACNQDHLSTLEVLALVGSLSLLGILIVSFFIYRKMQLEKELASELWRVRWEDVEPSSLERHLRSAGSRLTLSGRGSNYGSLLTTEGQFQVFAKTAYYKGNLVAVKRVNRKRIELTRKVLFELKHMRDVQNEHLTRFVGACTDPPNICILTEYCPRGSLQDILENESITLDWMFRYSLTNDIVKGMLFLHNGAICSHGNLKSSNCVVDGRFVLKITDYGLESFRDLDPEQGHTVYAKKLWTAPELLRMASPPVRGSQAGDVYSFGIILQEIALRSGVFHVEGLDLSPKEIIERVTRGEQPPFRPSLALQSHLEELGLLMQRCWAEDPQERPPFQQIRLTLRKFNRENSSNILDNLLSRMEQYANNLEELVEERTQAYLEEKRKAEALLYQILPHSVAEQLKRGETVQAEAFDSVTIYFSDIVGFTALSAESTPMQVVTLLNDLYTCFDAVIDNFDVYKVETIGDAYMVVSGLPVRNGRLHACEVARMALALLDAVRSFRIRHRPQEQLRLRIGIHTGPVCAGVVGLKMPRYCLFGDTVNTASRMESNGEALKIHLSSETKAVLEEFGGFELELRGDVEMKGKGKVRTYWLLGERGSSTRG
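HEK293 cells stably expressing human Npr1 and cGMP GloSensor pGS-40F, loaded 2 h with 2% GloSensor reagent, given compound 30 min at room temperature. Luminescence read before and 20 min after 0.1 nM hNppA.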
Numbers without * were called inactive; ? = inconclusive; [ ] = dose if it differs, or a comment. % is scaled to controls: 0 for no effect and ±100 for the full control effect; potency is read from the fitted curve at half-maximal effect. These rows are one share of the data (hit frequency here may not be typical).

Preview, three compounds:
hNpr1 antagonist | structure
0.2% | CN1CCC(Oc2ccc(C(=O)N3CCOCC3)cn2)CC1
? | COc1ccc(-c2cc(C[C@@H]3CC[C@H](O)[C@@H](CNCc4cccc(OC)c4)O3)no2)cc1
-15.2%[70.6 µM] | Fc1ccc(-c2cc(-c3cn[nH]c3)c3cncn3c2)cc1

The whole of this part (from the top)
hNpr1 antagonist | structure
0.2% | CN1CCC(Oc2ccc(C(=O)N3CCOCC3)cn2)CC1
? | COc1ccc(-c2cc(C[C@@H]3CC[C@H](O)[C@@H](CNCc4cccc(OC)c4)O3)no2)cc1
-15.2%[70.6 µM] | Fc1ccc(-c2cc(-c3cn[nH]c3)c3cncn3c2)cc1
5.8% | Cc1ccc(C2Cn3nnc(-c4noc(-c5ccccn5)n4)c3CO2)cc1 (configuration not stated)
2.2%[70.6 µM] | CCNC(=O)O[C@@H]1CO[C@H]2[C@@H]1OC[C@@H]2NC(=O)Nc1ccc(C(C)C)cc1
4.0% | CN1CCC2(CC1)CN(C(=O)c1ccccc1)Cc1ccccc1O2
3.6% | NC(=O)C1CCN(C(=O)C2c3ccccc3C(=O)N(c3ccccc3)C23CCCCC3)CC1 (configuration not stated)
1.1% | CCN(Cc1nccn1C)C(=O)c1ccc(N2CCSCC2)nc1
-1.5% | COC[C@H]1NC(=O)CC[C@H]1C(=O)N1CCN(Cc2ccccc2)CC1
-3.1% | Cc1cnc(C2CC2)n1CC1CCN(C(=O)Cc2ccccc2)CC1
-2.5% | COCCC1(C(=O)O)CCCCC(=O)N1 (configuration not stated)
1.8% | Cn1cc2c3c(cccc31)CN(C(=O)c1ccccc1Cl)CC2
13.6% | NCCN1C(=O)CC[C@H]2CN(C(=O)C3(c4ccccc4)CC3)CC[C@H]21
? | c1ccc(-c2nc(-c3ccc(OC4CNC4)cc3)no2)cc1
-12.1% | Cn1cc2c3c(cccc31)CN(C(=O)c1cccc(Br)c1)CC2
-11.5% | O=C1CN(Cc2cccc(-c3ccsc3)c2)CCN1c1cc(Cl)ncn1
2.4%[70.6 µM] | Cc1cc(C)c(CNC(=O)c2nc(-c3cnn(C)c3)cc3c2ccn3C)c(=O)[nH]1
-6.1% | O=C1CCN(C2CCOCC2)CCOCCN1
2.8% | COCCN(C)C(=O)c1cn(C2CNC2)nn1
-28.2% | O=C(c1cc2n(n1)CC(c1ccc(Cl)cc1)OC2)N1CCN(c2ccccn2)CC1 (configuration not stated)
0.0% | O=C(CN1CCOCC1)N1C[C@@H](COCC2CC2)[C@H](c2ccncc2)C1
7.3% | CC(C)N1C[C@H](O)C[C@H]1c1nnc2n1CCN(C(=O)c1ccncc1)CC2
-4.4% | CC(=O)c1ccc(NC(=O)N[C@H]2CO[C@H]3[C@@H]2OC[C@@H]3n2nnnc2Oc2ccc(-n3ccnc3)cc2)cc1
-2.3% | COCCN1C(=O)c2ccccc2C(C(=O)Nc2ccc(C)cc2Cl)C12CCCC2 (configuration not stated)
-6.1% | CN(C)C[C@@H]1CN(S(C)(=O)=O)C[C@H]1NC(=O)c1ccc(C#N)cc1
-4.0% | Cc1ccc(CNC(=O)C2CCc3nc(N4CCN(C(=O)C(C)C)CC4)sc3C2)o1 (configuration not stated)
1.5% | O=C(CCC[C@@H]1[C@H]2CCCN3CCC[C@@H](CN1C(=O)c1cc(F)ccc1F)[C@@H]23)Nc1ccccc1
9.0% | CN1C[C@H](O)C[C@H]1c1nnc2n1CCN(Cc1ccccc1)C2
1.3%[70.6 µM] | O=C(NCc1cccc(F)c1)c1c[nH]c2ncccc12
-4.5% | COc1ccc(Cn2c(C3CCN(C(=O)Cc4ccccc4Cl)CC3)n[nH]c2=O)cc1
-0.3% | CS(=O)(=O)N1CCN(C(=O)Nc2ccccc2)C[C@H]1C(=O)N[C@@H](CC1CCCCC1)C(N)=O
-1.9% | Cc1noc(-c2cn(C3CCN(C(=O)c4ccc(C(C)(C)C)cc4)CC3)nn2)n1
1.6% | C=CCN1CC2(CCC1=O)CCN(CC1CCCCO1)CC2 (configuration not stated)
-4.4% | O=C(c1ccc(F)cc1)N1CCC2(CC1)CC(OCC1CC1)CCO2 (configuration not stated)
? | COc1ccc(-c2onc(C)c2C(=O)N2CCC(Cc3ccc(F)cc3)CC2)cc1
6.5% | CSCC(=O)N[C@H]1CCN2C(=O)c3cc(-c4ccc5c(c4)OCO5)ccc3NC(=O)[C@H]12
-6.8% | Cc1ccc(OCC(=O)NCC2CCN(c3cnn(C)c(=O)c3)C2)cc1 (configuration not stated)
13.9% | COc1ccc(NC(=O)N2CCC(O)(c3csc(CN4CCN(C)CC4)n3)CC2)cc1
4.8%[70.6 µM] | Cc1nnc(-c2cc(-c3ccnn3C)ccn2)n1-c1ccccc1
6.6% | COc1ccc(CC(=O)N[C@@H]2CN(c3ccncn3)C[C@H]2CN(C)C)cc1OC

Structures listed so far that contain an NH in an aromatic ring (4):
hNpr1 antagonist | structure
-15.2%[70.6 µM] | Fc1ccc(-c2cc(-c3cn[nH]c3)c3cncn3c2)cc1
2.4%[70.6 µM] | Cc1cc(C)c(CNC(=O)c2nc(-c3cnn(C)c3)cc3c2ccn3C)c(=O)[nH]1
1.3%[70.6 µM] | O=C(NCc1cccc(F)c1)c1c[nH]c2ncccc12
-4.5% | COc1ccc(Cn2c(C3CCN(C(=O)Cc4ccccc4Cl)CC3)n[nH]c2=O)cc1

Next entries:
hNpr1 antagonist | structure
2.8% | COCCn1ncc(N2CCC(C(=O)Nc3ccc(F)cc3F)C2)cc1=O (configuration not stated)
9.4% | COCC1CN(C(C)=O)CC12CCN(S(=O)(=O)c1ccc(C#N)cc1)CC2 (configuration not stated)
-6.2% | O=C(NCc1ccc(F)cc1)c1csc(N2CCN(c3ccccc3F)CC2)n1
-5.2% | COc1ccc(NC(=O)NC2CCN(C(=O)N3CC4CC(C3)[C@H]3CCCC(=O)N3C4)CC2)cc1 (some centres not stated)
? | O=C(Nc1ccc2c(c1)OCO2)C1CCc2sc(C(=O)N3CCCC3)cc2C1 (configuration not stated)
-5.4% | O=C1CCN(C(=O)c2ccco2)CCCC(c2nc(-c3ccccc3)no2)CCN1 (configuration not stated)
-5.6%[70.6 µM] | CC(C)c1ccc(CN2CCc3ncc(C(=O)NCCN4CCNC4=O)n3CC2)cc1
-3.8% | CCOc1ccc(CCNc2nc(-c3ccccc3)no2)cc1
2.7% | O=C(Cn1nc2c(cc1=O)CCCCC2)Nc1cccc2[nH]ccc12
-19.3% | COc1cccc(-c2cc(C3CCN(C(=O)NCCc4ccccc4)CC3)[nH]n2)c1
2.8% | COc1nc2ccccc2cc1CN1CCN2C(=O)CN(C)C(=O)C2C1 (configuration not stated)
-1.9% | NC(=O)c1nc(CNC(=O)CC(c2ccccc2)c2cccc(Cl)c2)no1 (configuration not stated)
2.1% | NC(=O)c1cccnc1OC1CCN(C(=O)c2ccoc2)C1 (configuration not stated)
2.5% | O=C1NCCCCCCN(C(=O)COc2ccccc2)[C@H]2CCC[C@@H]12
2.8% | CCOc1ccc(-c2nc(C3CC(=O)N(c4ccc(F)cc4)C3)no2)cc1OCC (configuration not stated)
-5.5% | O=C(NC1CCCN(c2cc(-c3ccccc3)[nH]n2)C1)c1ccccc1C(F)(F)F (configuration not stated)
-11.5% | COc1ccccc1CCC(=O)N1CCC(c2n[nH]c(=O)n2Cc2ccc(F)cc2)CC1
5.0%[70.6 µM] | COc1ccc(-c2cn(C)c(=O)n3cc(CN4CC[S+](=O)([O-])CC4)nc23)cn1
-2.4%[70.6 µM] | CC(C)NC(=O)c1c(-c2ccc(F)cc2)noc1[C@H](C)O
-3.2% | CN(Cc1ccccc1)c1ncccc1CNc1ccc(C#N)cn1
2.7% | O=C(CC1CCCC1)N1CCCCCC1CN1CCOCC1 (configuration not stated)
1.5% | CC(=O)N1CCC(Oc2ccc(Cl)cc2C(=O)N(C)CCN2CCOCC2)CC1
9.1% | CCn1nc(C)c(-c2cc(C(=O)NCCc3noc(COC)n3)no2)c1C
-4.4% | O=C1NCCCCCCN(Cc2ccncc2)[C@@H]2CN(Cc3ccc(O)cc3)CC[C@H]12
-19.1% | COc1cc(Cl)ccc1C(=O)N1CCC(Cc2nc(C(C)C)no2)CC1
-0.1% | Cc1ccc(-c2ccc3nnc(CNC(=O)C4CC4)n3n2)cc1
15.1% | CNC(=O)N1CCC(C2CCN(C(=O)CC3CCCCC3)C2)CC1 (configuration not stated)
4.7% | O=C(NCC1(COc2ccc(C(F)(F)F)cn2)C[C@@H](O)[C@@H](O)C1)c1ccno1 (some centres not stated)
11.5% | CN(CCO)CC1(O)CCCN(Cc2cccc(F)c2F)C1=O (configuration not stated)
4.8% | CC(NC(=O)c1ccc(N2CC(=O)NC2=O)cc1)c1cn2ncsc2n1 (configuration not stated)
4.3% | O=C(c1ccccn1)N1C[C@@H]2C[C@H](C1)c1ccc(NS(=O)(=O)Cc3ccccc3)c(=O)n1C2
5.7%[70.6 µM] | CN[C@H](C(=O)N[C@@H]1C=C(C(=O)N[C@H]2CCCNC2=O)C[C@@H](O)[C@@H]1O)C(C)C
-2.1% | O=C(c1ccc(SCCO)cc1)N1CCCC(CO)(CC2CC2)C1 (configuration not stated)
-2.1% | COc1cc(=O)n2c(c1C(=O)Nc1cccc(C(F)(F)F)c1)CCCC2
? | CCOC(=O)C1=C(C)N=C2SC=C(CC(=O)N3CCCC3)N2C1c1cccc(C)c1 (configuration not stated)
-1.3% | Cc1ccc([S+](=O)([O-])N2CCn3c(nn(-c4ccncc4)c3=O)C2)cc1
3.6% | CN(C)C(=O)CN1C(=O)CO[C@H](c2ccc(NS(=O)(=O)Cc3ccccc3)cc2)[C@H]1CO
-24.5% | Cc1cc(C)n(-c2cccc(CN(C)C(=O)c3cn(Cc4ccc(Cl)cc4)nn3)c2)n1
-4.6% | CCOc1ccccc1NC(=O)C[C@H]1NC(=O)c2ccccc2NC1=O
-13.5% | COC(=O)c1ccc2nc(C[C@@H]3C[C@@H](C(C)C)[C@H](CNCc4ccc(NC(C)=O)cc4)C=C3C)[nH]c2c1

Arranged by the number under hNpr1 antagonist (ascending): 3 of the compounds above
Structure | hNpr1 antagonist
O=C1NCCCCCCN(Cc2ccncc2)[C@@H]2CN(Cc3ccc(O)cc3)CC[C@H]12 | -4.4%
COc1cc(=O)n2c(c1C(=O)Nc1cccc(C(F)(F)F)c1)CCCC2 | -2.1%
O=C(c1ccccn1)N1C[C@@H]2C[C@H](C1)c1ccc(NS(=O)(=O)Cc3ccccc3)c(=O)n1C2 | 4.3%

Carrying on.
hNpr1 antagonist | structure
0.6% | Cn1c(CNC(=O)C2(Cc3ccccc3)CCCCC(=O)N2)nc2ccccc21 (configuration not stated)
1.5%[70.6 µM] | COc1ccc(NC(=O)N[C@H]2CO[C@H]3[C@@H]2OC[C@@H]3n2nnnc2-c2ccccc2)cc1
-12.3% | COCC1CN(C(=O)c2nccn2C)CC12CCNCC2 (configuration not stated)
1.3% | CCOc1cc(=O)n2c(c1C(=O)NCc1ccc(F)cc1F)CCCC2
-0.5% | CCNC(=O)N[C@H]1CC[C@]2(C)CC[C@@H]([C@H](C)C(=O)NCc3ccc(F)cc3)[C@H](O)[C@H]2[C@@H]1C
1.8% | O=C(Cc1cccnc1)N1CCC(N2C(=O)C3(CCCCC3)C2c2ccccc2)CC1 (configuration not stated)
-7.9%[70.6 µM] | Cc1oc(C(O)c2ccccc2F)nc1C(=O)Nc1ccc2[nH]ccc2c1 (configuration not stated)
-0.6%[70.6 µM] | CN(C)CCNC(=O)c1nc2nc(-c3ccccc3)c(-c3cccc(CO)c3)cc2n1C
-1.0% | COc1ccc(C(CC(=O)N2CCCC2)c2c[nH]c3ccccc23)cc1 (configuration not stated)
-2.2% | Cc1nsc(NC(=O)N2CCC(C(=O)N3CCCC3)CC2)n1
-0.9% | Cc1cc2nc3n(c(=O)c2n1CC(=O)Nc1ccc(F)c(Cl)c1)CCCCC3
8.1% | CCC(CC)CN1CC2(CCN(C(=O)CCc3cc(=O)[nH]o3)CC2)OC1=O
-3.8%[70.6 µM] | CS(=O)(=O)c1ccc(OC[C@H]2C[C@@H](NC(=O)c3ccccc3)[C@H](O)[C@@H]2O)cc1
-2.4% | Cc1ncccc1C(=O)N1C[C@@H](Oc2cccnc2)C[C@H]1C(=O)N1CCOCC1
-19.4% | COCC1CN(C2CCC2)CC12CCN(C(=O)CCC1CCCC1)CC2 (configuration not stated)
6.2% | COc1ccc(-c2cc(C(=O)N3CCC(c4nc(CCOCC5CC5)no4)C3)[nH]n2)cc1 (configuration not stated)
0.1% | COc1ccc(-c2ccccc2)cc1N1C(=O)[C@@H]2C[C@H]1CN2C(=O)C1(N)CC1
-2.2% | Cc1cc(CN2CCOc3c(O)cc(-c4ccccc4C)cc3C2)on1
-18.6% | O=C(c1ccn[nH]1)N1CCC(c2noc(COc3ccc(F)cc3)n2)CC1
8.5% | CC(C)C(=O)Nc1ccc(C2(C(=O)NCc3ccccn3)CCC2)cc1
2.6%[70.6 µM] | O=C(NC[C@H]1OC[C@@H](NC2CCC2)[C@@H]1O)c1ccncc1
1.5%[70.6 µM] | CCCS(=O)(=O)N[C@H]1C[C@@H](c2nc(-c3ccc4c(c3)OCO4)no2)N(C)C1
-1.2% | CCn1cc2c3c(cccc31)CN(C(=O)CC(C)(C)C)CC2
10.0% | CN1CCC(O)(Cc2nc3c([nH]2)CC(C)(C)CNC3=O)CC1
4.0% | CCOCCCNC(=O)N1CC(Oc2cccc(-c3nc(C)no3)c2)C1
-25.3% | COc1ccc(C2Cn3nnc(C(=O)N4CCN(C(=O)c5ccc(C)cc5)CC4)c3CO2)cc1 (configuration not stated)
0.0% | O=C(NC1CCCCCC1)c1nnn2cc(-c3ccc(Cl)cc3)[nH]c(=O)c12

Compound activity from PubChem.
